2A firefly = lowers the firefly signal of an FMDV 2A StopGo reporter. actives 0.23% (n = 120,000). HEK cells with a luciferase reporter of 2A StopGo recoding. AID 1745856. Potency, µM (highest dose often 57.5 µM), without a hit: top-dose signal change, negative = less light; active = well fitted falling curve with a large enough effect; inconclusive = small, poorly fitted or top-dose-only effect; inactive = no such curve, though single readings can be large or run the other way; also: nearly all actives have a fitted effect of over 60% in size; overnight with compound
StopGo RLuc = lowers the Renilla signal of an FMDV 2A StopGo reporter; HEK cells with a luciferase reporter of 2A StopGo recoding; Potency, µM (top dose mostly 57.5 µM), for the others: at the top dose signal change, negative = less light; actives 0.32% (n = 120,000); active means well fitted falling curve with a large enough effect; inconclusive means small, poorly fitted or top-dose-only effect; inactive means no such curve, though single readings can be large or run the other way; also: nearly all actives have a fitted effect of over 55% in size; overnight with compound
An asterisk follows results filed as active; ? = inconclusive; & = joins results of further samples; [ ] = remark or other dose. % is scaled to controls: 0 for no effect and ±100 for the full control effect; potency is read from the fitted curve at half-maximal effect.

SMILES	StopGo RLuc	2A firefly
O=C(Nc1nnc(C2CCCCC2)s1)C1CCN(C(=O)c2cccc(F)c2)CC1	12.4%	90.0%[activator]
COc1ccc2cc(CNC(=O)c3cc4ccc(OC)cc4nc3C)ccc2c1	-4.2%	5.2%
CCC(CC)C(=O)Nc1cccc(C(=O)Nc2ccc(S(N)(=O)=O)cc2)c1	12.3%	-5.8%
CC1CCN(S(=O)(=O)c2cn(CC(=O)Nc3ccc(-c4ccno4)cc3)cn2)CC1	-1.9%	-4.0%
CN(C(=O)c1cc(=O)[nH]c2ccccc12)C1CCCC1	24.9%	0.0%
O=c1c2oc3ccccc3c2n(Cc2ccccc2Cl)c(=O)n1Cc1ccco1	-16.2%	0.0%
CC1=C(C(=O)Nc2cccc(C(F)(F)F)c2)C(c2ccccc2)n2ncnc2N1 (stereo not given)	-6.8%	-7.2%
c1ccc(C(CNCc2ccncc2)N2CCCC2)cc1 (stereo not given)	18.7%	0.0%
O=c1c(N2CCN(c3ccccc3)CC2)csc2ccc(Cl)cc12	42.4%[activator]	14.6%
O=C(O)CSc1ccc(Cl)c(Cl)c1Cl	0.6%	20.5%
Cc1ccc(-c2ccc(C=O)o2)cc1	-20.2%	55.7%[activator]
O=C(CSc1nc(=O)n(Cc2ccco2)c2c1CCC2)NC1CCCCC1	217.2%[activator]	63.3%[activator]
CC1=C(C(=O)Nc2ccc(C)cc2C)C(C(C)C)n2nc(SCc3ccccc3Cl)nc2N1 (stereo not given)	-20.4%	?
Cc1cc(F)ccc1NC(=O)c1c(C)oc2c1C1=NCCN1C=N2	10.2%	8.9%
Cc1cccc(Cn2c(N3CCOCC3)nc3c2c(=O)[nH]c(=O)n3C)c1	-1.2%	8.6%
CCOc1ccc(-n2c(SCC(=O)N3CCc4ccccc43)nc3c([nH]c4ccccc43)c2=O)cc1	-16.8%	-16.0%
Cc1cccc(OCC(=O)Nc2ccccc2C(=O)OCc2cc(=O)n3nc(C4CC4)sc3n2)c1	-5.1%	-20.7%
CO/N=C(/C(=O)N[C@@H]1C(=O)N2C(C(=O)OCOC(=O)C(C)(C)C)=C(C)CS[C@H]12)c1csc(N)n1	0.0%	-5.1%[11.5 µM]
Cc1cc(C)c(NC(=O)CN(C)Cc2coc(-c3ccccc3)n2)c(C)c1	-2.6%	-7.8%
CCOC(=O)C1CCN(C(=O)c2sc3nc(-c4ccc(F)cc4)cn3c2C)CC1	35.2%[activator]	14.1%
CCCCC(=O)N/N=C(/C)c1ccc(NC(=O)c2ccc(Cl)cc2)cc1	17.4%	63.6%[activator]
Cc1ccccc1NC(=O)c1cn(-c2ccccc2)nc1-c1ccccc1	-8.5%	8.0%
Cc1cccc(OCC(C)CN2CCC(C(O)(c3ccccc3)c3ccccc3)CC2)c1 (stereo not given)	-5.7%	-3.4%
O=C(COc1cc(Cl)ccc1Cl)N1CC=C(c2ccccc2)CC1	-4.6%	12.3%
CCOC(=O)c1ccc(N2CCN(c3cc(C)ccc3C)CC2)c(NC(=O)Nc2ccc(Cl)cc2)c1	-5.9%	-5.1%
O=C(N/N=C/c1ccccc1Cl)c1cccs1	24.5%	128.5%[activator]
CCCn1c(=N)c(C(=O)NCc2cccnc2)cc2c(=O)n3cc(C)ccc3nc21	-7.1%	-21.9%
CC(Sc1nnc(N2CCCCC2)n1-c1ccccc1)c1nc2ccccc2c(=O)[nH]1 (stereo not given)	20.5%	12.6%
CCN(CC)C(CNC(=O)c1nc(-c2ccccc2)oc1C)c1ccccc1 (stereo not given)	-18.6%	0.6%
Cc1ccc(CN2CCN(C(=O)CC(C)(C)C)CC2)cc1	-15.2%	3.5%

Ordered by number of heavy atoms (low to high): some entries from above.
SMILES	StopGo RLuc	2A firefly
Cc1ccc(CN2CCN(C(=O)CC(C)(C)C)CC2)cc1	-15.2%	3.5%
O=C(CSc1nc(=O)n(Cc2ccco2)c2c1CCC2)NC1CCCCC1	217.2%[activator]	63.3%[activator]
CC1CCN(S(=O)(=O)c2cn(CC(=O)Nc3ccc(-c4ccno4)cc3)cn2)CC1	-1.9%	-4.0%

Quoted at random: three entries already listed.
SMILES	StopGo RLuc	2A firefly
O=c1c2oc3ccccc3c2n(Cc2ccccc2Cl)c(=O)n1Cc1ccco1	-16.2%	0.0%
CO/N=C(/C(=O)N[C@@H]1C(=O)N2C(C(=O)OCOC(=O)C(C)(C)C)=C(C)CS[C@H]12)c1csc(N)n1	0.0%	-5.1%[11.5 µM]
CCOC(=O)C1CCN(C(=O)c2sc3nc(-c4ccc(F)cc4)cn3c2C)CC1	35.2%[activator]	14.1%

Other compounds follow.
SMILES	StopGo RLuc	2A firefly
Cc1[nH]c(SC(C)C(=O)Nc2cccc(S(=O)(=O)N3CCCCC3)c2)nc1Cc1ccccc1 (stereo not given)	-16.6%	?
COCCNC(=O)Cn1nc(N2CCN(c3ccccc3OC)CC2)ccc1=O	-8.8%	-0.3%
Cc1ccc(NC(=O)Cn2nc(-c3ccccc3)nc(Cc3ccc(Cl)cc3)c2=O)cc1	-10.8%	-13.9%
CN(C)CCCN(Cc1ccc(Cl)cc1Cl)Cc1ccc(Cl)cc1Cl	?	?
Cc1ccc(NC(=O)COC(=O)c2ccc(Cl)c(S(=O)(=O)N3CCCCCC3)c2)c(C)c1	0.2%	0.1%
CCN(CC(=O)Nc1ccccc1OC)C(=O)c1ccc(-c2cc(Cl)ccc2Cl)o1	-9.7%	-7.5%
O=C(CSc1n[nH]c(-c2cc(Br)ccc2O)n1)N1CCOCC1	23.4%	115.7%[activator]
CC(Sc1ncnc2nc[nH]c12)C(=O)NCc1ccc(Cl)cc1Cl (stereo not given)	-1.6%	1.6%
CCc1c(CN2CCN(c3ccccc3F)CC2)csc1C	-10.8%&-7.9%	-5.8%&-11.4%
CC1C(c2ccccc2)=[N+]([O-])C(C)(c2ccc(Cl)cc2)N1O (stereo not given)	20.7%	3.4%
CCOC(CC)C(=O)NCC1CCN(Cc2cccs2)CC1 (stereo not given)	2.9%	-0.1%
COC(=O)c1cc2oc3ccccc3c2n1CC(=O)Nc1cc(OC)cc(OC)c1	29.5%	0.0%
Cc1ccc(-c2nnc3ccc(C)cc3c2C(=O)O)cc1	3.1%	0.0%
CCOC(=O)c1ccc(NC(=O)c2cccn(Cc3ccc(C)cc3)c2=O)cc1	?	-103.2%
COc1ccc(-n2c3c(cc(-c4ncnn4-c4ccc(C)cc4C)c2=O)C(=O)CC(C)(C)C3)cc1	2.4%	8.0%
CCc1ccc(CN(C)CC(=O)N(C)c2c(N)n(Cc3ccccc3)c(=O)[nH]c2=O)cc1	-20.6%	-15.5%
COc1ccccc1NC(=O)c1sc2nc3c(cc2c1N)CCCCCC3	-14.5%	-1.8%
CCc1nn(CC(=O)N2CCN(c3cc(C)ccc3C)CC2)c(=O)c2cc3occc3n12	-3.5%	6.4%
CCOC(=O)c1[nH]c2ccccc2c1NC(=O)c1ccccc1OC	47.9%[activator]	?
Cc1[nH]c2ccccc2c1C(=O)C(=O)NC1CCS(=O)(=O)C1 (stereo not given)	-8.7%	-8.7%
COc1cccc(Oc2cnc(N)nc2-c2ccc(OC)cc2O)c1	20.4%	9.7%
COc1ccc(C2CC(=O)N(CC(=O)Nc3cc(C)cc(C)c3)c3ccccc3S2)cc1OC (stereo not given)	30.3%	190.9%[activator]
Cc1nc2ccc(C(=O)NCCCOCC3CC3)cc2nc1C	15.3%	56.6%[activator]
Cc1ccccc1NCC(=O)N1CCN(S(=O)(=O)c2ccc3ccccc3c2)CC1	?	4.9%
CN(C)S(=O)(=O)c1ccc2c(c1)N(CC(=O)NCc1cccc(Br)c1)C(=O)CS2	45.3%[activator]	?
CCOc1ccc(CNC(=O)C2CCN(c3nn4c(=O)cc(C)nc4s3)CC2)cc1	0.0%	2.5%
Cc1cccn2c(=O)c(/C=C(\C#N)c3nc4ccccc4s3)c(Oc3ccc(Br)cc3)nc12	3.9%	2.9%
CCc1ccc2c(c1)-c1ccccc1S(=O)(=O)N2CC(=O)N(CC)CC	143.3%[activator]	40.4%[activator]
CN(CCNC(=O)c1cc2ccccc2oc1=O)c1ccccc1	3.1%	52.0%[activator]
Cc1cccc(C)c1NC(=O)Cn1cc(C(=O)c2ccco2)c2ccccc21	154.7%[activator]	-10.0%
Cc1ccc(S(=O)(=O)c2cn(Cc3ccccc3)c3cc(N4CCCC4)c(F)cc3c2=O)cc1	8.0%	-8.8%
CCc1ccc(-n2nc3ccc(NC(=O)COc4ccc(OC)cc4)cc3n2)cc1	-13.2%	18.7%
CCOC(=O)NC1CCCN(CC=C(C)C)C1 (stereo not given)	7.1%	3.4%
Cc1nc(SCc2ccccc2Cl)c(C#N)c(C)c1C	7.3%	-9.2%
CC#CC[N+](C)(CC#CC)CC(=O)c1ccccc1	2.4%	10.5%
Cc1ccc(Cc2cn3cc(-c4ccc(F)cc4)nc3s2)cc1	6.4%	324.3%[activator]
CCc1ccc(Sc2cc(C(=O)NC3CCCC3)c3ccccc3n2)cc1	?	?
CC(=O)NNC(=S)Nc1cc(Cl)cc(Cl)c1	20.8%	8.2%
O=C(CCC1CCCC1)NCCc1cccnc1	-9.3%	35.2%[activator]
O=C(Cn1cc(S(=O)(=O)c2ccccc2)c(=O)c2cc(Cl)ccc21)Nc1ccc2c(c1)OCO2	3.8%	2.9%
Cc1ccc(NC(=O)Cn2c(=O)n(Cc3nc(C)no3)c(=O)c3ccccc32)c(Cl)c1	-3.6%	-16.0%
CCOC(=O)c1c(C)[nH]c(C)c1C(=O)CSc1ncnc2sc3c(c12)CCC3	70.7%[activator]	-7.0%
CCn1cc(CNC(=O)c2cc(-c3cccc(C)c3)nc3ccccc23)cn1	-8.9%	0.0%
Cc1ccc2nc3c(c(Nc4ccc(C)c(C)c4)c2c1)CCC3	?	?
CS(=O)(=O)c1ccc(C(=O)N(Cc2ccco2)Cc2cccs2)cc1	18.4%	-5.9%
COc1ccc(C2=NS(=O)(=O)N(C)C(C(=O)Nc3ccc(OC(F)(F)F)cc3)=C2)cc1	-2.7%	10.1%
Cc1cccc(NC(=O)C2CCCN(c3nnc(-n4c(C)ccc4C)s3)C2)c1C (stereo not given)	9.9%	5.5%
COc1cccc(OC)c1C(=O)Nc1ccc2oc(-c3ccc(F)cc3)nc2c1	-6.0%	101.7%[activator]
COc1ccc(C2CCCCCN2Cc2nc(-c3ccccc3OC)no2)cc1 (stereo not given)	2.9%	63.5%[activator]
Cc1nc(N2CCCC2)ncc1C(=O)NCc1ccc(F)cc1	10.1%	6.5%

Next structures follow.
SMILES	StopGo RLuc	2A firefly
O=C(Nc1ccccc1)N1CCN(c2cnccn2)CC1	-9.6%	10.6%
C#CCOC(=O)c1cccc(CS(=O)(=O)c2ccccc2)c1	-2.9%	20.7%
CCOc1ccccc1CNC(=O)CCc1cn(Cc2ccc(Cl)cc2)c2ccccc12	-3.1%	-14.9%
N#CC(C(=O)Nc1ccccc1Cl)C(=O)c1ccc(F)cc1 (stereo not given)	10.2%	178.2%[activator]
CCN(CC)C(=O)Cn1cc(SCC(=O)Nc2ccccc2F)c2ccccc21	22.8%	2.4%
CCC(=O)N1c2ccc(S(=O)(=O)CCC(=O)Nc3cccc(C)c3C)cc2CC1C (stereo not given)	7.1%	1.8%
O=c1[nH]c(=O)n([C@H]2O[C@H](CO)[C@@H](O)[C@@H]2O)cc1/C=C\Br	-1.0%	-9.2%
Cc1noc2ncnc(NCc3ccc(Cl)cc3)c12	?	?
Cc1ccc(Cn2c(Cc3ccccc3)nc3ccccc32)cc1	?	?
O=C(O)CSCc1cccnc1	23.6%	23.2%
COc1ccc(CNc2ncnc3c2nc2n3CCCC2)cc1	17.8%	0.0%
Cc1ccc(C)c(NC(=O)Cn2c(=O)n(CCC(=O)NCc3ccc4c(c3)OCO4)c(=O)c3ccccc32)c1	-8.5%	-2.5%
Cc1ccc(C)c(NC(=O)CN(C)C(=O)c2cc3ccccc3oc2=O)c1	4.2%	180.6%[activator]
Cc1ccc(Oc2nc3c(c(=O)n(Cc4ccccc4F)c(=O)n3C)n2C)cc1	2.8%	-7.7%
[O-][n+]1ccccc1SSc1cccc[n+]1[O-]	?	?
CCN(CC)S(=O)(=O)c1ccc(C)c(NC(=O)C2CCCN(C(=O)c3ccc(Cl)cc3)C2)c1 (stereo not given)	-27.6%	?
Fc1ccc(N/N=C/c2ccc(Cl)c(Cl)c2)c(F)c1	10.6%	132.6%[activator]
Cc1nc2nc[nH]n2c(=O)c1NS(=O)(=O)c1ccc(Br)cc1	-9.9%	-3.9%
CCCCNC(=O)Cc1c(C)nc2nc(N)nn2c1C	-5.7%[1.06 µM]	10.6%
Cc1ccc(NC(=O)CN2c3ccccc3CC2C)c(Cl)c1 (stereo not given)	89.7%[activator]	7.7%
CC(C)(C)NC(=O)NC(=O)COc1ccccc1C#N	-0.6%	152.6%[activator]
Cc1nn(-c2ccc(N3CCCCC3)nn2)c(C)c1CCC(=O)NCc1ccccc1F	-7.7%	0.4%

Screens (PubChem)
